Sa growth inh: inhibitors of Staphylococcus aureus growth at 42 °C. S. aureus RN4220 growth, OD600, 20 h; stronger effect = lower value. relative growth, % (test concentration not listed). 170,000 compounds, 0.53% hits. AID 720641;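 active = growth at 42 °C up to 50% and 20 or more points under that at 30 °C, or under 10% at both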;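 note: 300 nL library stock went into each well; scaled to the means of positive and negative controls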
HCMV NEC inh: cytomegalovirus nuclear egress complex inhibition | inhibition, % (test concentration not listed) | 190,000 compounds, 0.15% hits | HTRF UL50-UL53 interaction, normalized percent inhibition;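 active = both replicates at 50% or more, plus weaker picks with an unusually low signal ratio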;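 note: stock transfer was 100 nL into about 20 µL; 0% = negative control wells and 100% = wells with untagged competitor protein; inactives centre near -12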
GIV-Gai inh: inhibitors of GIV GBA-motif binding to rat Galpha-i3. 210,000 compounds, 0.42% hits. AID 1224905. percent of control (FP), % (concentration not given with the values). Galpha-i3/FITC-GIV peptide fluorescence polarization, 90 min; stronger effect = lower value; scaled: aluminum fluoride 0%, vehicle 100%;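 active = replicate mean at 85% of control or lower, very high polarization wells dropped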;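 note: wells of about 15 µL received 100 nL stock; the first replicate is given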
Target sequence (P08753 whole entry, looked up): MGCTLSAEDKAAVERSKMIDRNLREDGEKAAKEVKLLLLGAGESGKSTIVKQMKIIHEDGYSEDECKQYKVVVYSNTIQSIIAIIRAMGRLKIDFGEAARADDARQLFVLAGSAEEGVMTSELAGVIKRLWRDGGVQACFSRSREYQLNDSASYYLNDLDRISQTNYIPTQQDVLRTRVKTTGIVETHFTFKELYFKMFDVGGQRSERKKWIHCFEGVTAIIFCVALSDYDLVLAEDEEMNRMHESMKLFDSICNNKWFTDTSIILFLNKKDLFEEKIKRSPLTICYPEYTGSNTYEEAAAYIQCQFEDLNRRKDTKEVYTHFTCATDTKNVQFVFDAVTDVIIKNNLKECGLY
Sa growth inh second temp: also measured in Sa growth inh; calls as there; relative growth, %; measured here: growth at 30 °C;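 optical density after 20 h as mean of two plates; 100% = untreated growth and lower means inhibition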
* = called active by the depositor; . = not tested or not shown; & = joins results of further samples.

Structure,HCMV NEC inh,Sa growth inh,GIV-Gai inh,Sa growth inh second temp
Cn1ccnc1SCC(=O)Nc1cccc(Br)c1,-6&-1,98,107&99,85
CC1=C(C(=O)Nc2ccccc2)C(c2cccnc2)n2nc(SCc3ccccc3F)nc2N1 (configuration not stated),-13,130,104,90
CC(C)NC(=O)Cn1nc2n(C(C)C)c(=O)c3ccc(C(=O)NC4CCCC4)cc3n2c1=O,-32,.,105,.
Cc1nc(Cc2nnc(SCC(=O)NCC34CC5CC(CC(C5)C3)C4)o2)cs1,-20,73,.,92
COc1nc(OC)nc(-n2cnc(NC(=O)Nc3cccc(Cl)c3)n2)n1,-3,88,.,76
C=CCN1C(=O)c2ccc(C(=O)OCc3ncc(-c4ccccc4)o3)cc2C1=O,-33,105,.,88
O=C(CN1C(=O)CC(c2ccc(F)cc2)=Nc2ccccc21)NCCc1ccccc1,-34,.,101,.
O=C(CSCc1nc2ccccc2[nH]1)N1CCOCC1,-13,123,.,89
Cc1ccc(NC(=O)c2nnc(CCC(=O)Nc3ccc(Cl)cc3)s2)cc1,-7,.,100,.
COc1ccc(C(=O)N(Cc2ccco2)Cc2ccccc2F)cc1Cl,3,100,105,77
S=C(N=P(c1ccccc1)(N1CCOCC1)N1CCOCC1)N1CCN(c2ccccc2)CC1,-32,83,.,87
COc1cccc(NC(=O)CSc2nc3c(sc4ccccc43)c(=O)n2CCCN2CCOCC2)c1,6,95,100,90
OCC#CCSc1nc2ccccc2s1,-29,106,102,87
C/C=C1\NC(=S)N(c2ccccc2)C1=O,-32,84,97,82
O=S(=O)(Nc1ccc(-c2ccc(N3CCCC3)nn2)cc1)c1ccc(F)cc1F,-43,.,101,.

Reprinted from the part before: three compounds, then new ones.
Structure,HCMV NEC inh,Sa growth inh,GIV-Gai inh,Sa growth inh second temp
OCC#CCSc1nc2ccccc2s1,-29,106,102,87
C/C=C1\NC(=S)N(c2ccccc2)C1=O,-32,84,97,82
O=S(=O)(Nc1ccc(-c2ccc(N3CCCC3)nn2)cc1)c1ccc(F)cc1F,-43,.,101,.
CCOc1ccc(-c2nonc2NC(=O)c2oc3cc(C)ccc3c2C)cc1OCC,16,76,105,92
O=C(Cn1c(=O)c2ccccc2n(CC(=O)Nc2ccc(Br)cc2)c1=O)NCc1ccco1,-2,97,103,92
CCc1ccc(-c2csc(NC(=O)CCC(=O)N3CCN(C(C)=O)CC3)n2)cc1,-20,79,.,91
N#Cc1c(O)c2ccccc2[nH]c1=O,-20,97,101,89
O=C(NC1CCCC1)C1CCCN1S(=O)(=O)c1cccc2cccnc12 (configuration not stated),.,93,95,92
COc1ccc(S(N)(=O)=O)cc1C(=O)OCc1nc2ccccc2s1,-15,104,.,95
CCN(CC)CCSc1nc2ccccc2n1Cc1ccccc1,-17,89,105,73
CCOc1ccc(/C=C(\C#N)C(N)=C(C#N)C#N)cc1,-23,75,.,87
COc1ccc(/C=N/C2=NNC(=O)C(CC(=O)O)S2)cc1 (configuration not stated),-41,108,.,120
O=C(/C=C1\SCC(=O)N1c1ccccc1)c1ccc(Cl)cc1,26,79,98,85
O=C(NCCN1CCOCC1)c1ccc(I)cc1,-30,110,106,92
O=S(=O)(c1ccc(NCCC2=CCCCC2)nn1)C1CCCCC1,-20,.,103,.
COC(=O)CCS(=O)(=O)c1cccc2c(S(=O)(=O)CCC(=O)OC)cccc12,.,103,103,95
CC(=O)N1CCc2c(sc3c2c(=O)n(-c2cccc(Cl)c2C)c(=O)n3Cc2ccccc2C)C1,-17,94,100,86
CC1CCN(c2c(NCc3ccc(C(=O)N4CCn5c4nc4ccccc45)cc3)c(=O)c2=O)CC1,-19,.,100,.
c1ccc(N2CCN(c3ncnc4sccc34)CC2)nc1,0,83,.,86
CSC1=NCCN1S(=O)(=O)c1ccccc1,-16,95,100,88
Cc1nn(-c2ccccc2)c2sc(C(=O)OCC(=O)N3CCCC3)cc12,-6,94,.,91
CC(C(=O)NC1CCCC1)N1C(=O)CCCc2ccccc21 (configuration not stated),-6,.,105,.
O=C(Nc1ccc(C(=O)N2CCN(c3ccccn3)CC2)cc1)c1nnc(COc2ccccc2)s1,-13,.,102,.
CN(Cc1ccco1)C(=O)c1ccc2c(c1)N(Cc1cccc(F)c1)C(=O)c1ccccc1S2,.,88,105,82
COc1ccccc1NC(=O)CCSc1cccc2cccnc12,-22,123,.,56
CNC12CC3CC(CC(S)(C3)C1)C2,.,105,101,99
Cc1nc(-c2cccc(C(=O)N3CCN(c4nc5ncccc5o4)CC3)c2)no1,2,.,106,.
COC(=O)c1ccccc1NC(=O)NC(C)(C)C,-4,94,107,99
Cc1ccc(C)c(C(=O)N2CCC(c3nc4c(nnn4Cc4ccc(F)cc4F)c(=O)[nH]3)CC2)c1,0,15,103,26
Cc1cccc(-c2csc(-c3nc(-c4cccc(Br)c4)no3)c2-n2cccc2)c1,-17,.,100,.
Cc1nn(CCCC(=O)NC2CCCC2)c(=O)c2nn(-c3ccccc3)c(C)c12,0,.,100,.
Cc1ccc(OC(C)C(=O)NC(C)(C#N)C(C)C)cc1 (configuration not stated),-16,70,.,92
CCCc1nnc(NC(=O)c2cc(=O)c3cc(Cl)ccc3o2)s1,-30,92,103,78
c1ccc(-c2nnc(CSc3nnc4n3CCCCC4)o2)cc1,-22,99,.,89
C=Cc1ccc(Cn2nc3n(C)c(=O)c4ccc(C(=O)NC5CCCC5)cc4n3c2=O)cc1,-11,.,114,.
NC(=O)CSc1nnnn1-c1cccc(O)c1,.,91,101,87
CSc1ncc(C(=O)Nc2cccc(Cl)c2C)c(-c2ccccc2)n1,.,119,101,118
CC1CCN(S(=O)(=O)c2ccc3c(c2)N(CC(=O)N2CCN(c4ccccc4)CC2)C(=O)CO3)CC1,1,78,101,94
Cc1sc2ncn(CC(=O)N3CCN(c4ccccc4F)CC3)c(=O)c2c1S(=O)(=O)N1CCN(c2ncccn2)CC1,-29,107,111,93
Cc1ccccc1CN1C(=O)CC(c2ccccc2)=Nc2ccccc21,-39,.,98,.
O=C(CSC1CCCC1)Nc1ccccc1Br,-20,109,.,93
O=C(CSc1nc2c(sc(=S)n2-c2ccccc2)c(=O)n1Cc1ccco1)NC1CCCCC1,21,99,106,107
CCOC(=O)c1cnc(SCC(=O)Nc2ccc(C)cc2)nc1N,-25,.,107,.
COc1ccc(-c2ccc3c(N)c(C(=O)Nc4ccc(C)cc4C)sc3n2)cc1OC,0,106,103,94
CCOC(=O)c1sc(C)c2c(=O)[nH]nnc12,-92,86,103,74
COc1ccc(NC2=NCCC2)cc1,6&12,112,.,94
CCN(CC)c1ccc(NC(=O)CNc2ccc(F)cc2F)cc1,-15,118,.,88
O=C(c1ccco1)N1CCN(C(=O)C(c2ccccc2)N2Cc3ccccc3C2=O)CC1 (configuration not stated),-22,103,105,84
CCN(CC)c1ccc(C(=O)OCc2c(C)noc2C)cc1,-31,73,.,89
Cc1[nH]c(=O)c(C#N)cc1-c1csc(-c2ccccc2)n1,6,117,106,91
CC(C(=O)OCc1nnc(-c2ccccc2)o1)N1C(=O)c2ccccc2C1=O (configuration not stated),-7,99,.,92
CCCS(=O)(=O)N1CCCC(C(=O)NC)C1 (configuration not stated),.,130,104,87
CCOc1ccc(/C=C/C(=O)N(C)Cc2ccccc2)cc1OC,-79,80,107,89
Cc1nnc(SCC(=O)N(C)C2CCCCC2)s1,-7,105,102,90
CC(C)CCNC(=O)CN1C(=O)c2cccnc2Sc2ccccc21,.,84,103,90
Cc1ccc2c(c1)c1c3n2CC(O)CN=C3CCC1 (configuration not stated),-74,93,106,86
CC(C)n1cnc(S(=O)(=O)N2CCCC(C(=O)N3CCCCC3)C2)c1 (configuration not stated),-26,.,103,.
O=C(OCC(=O)N1CCCCC1)c1ccccc1SCC(=O)N1CCCCC1,-14,124,.,89
COc1ccc(-c2nn(C)c3sc(C(=O)N4CCN(c5cc(Cl)ccc5C)CC4)cc23)cc1OC,-26,98,104,94
CSc1sc(SC)c(COC(C)=O)c1COC(C)=O,-2,80,102,54
Cc1ccc(NC(=O)Cn2nnc(C(=O)O)c2C(=O)O)cc1Cl,-2,.,97,.
Cc1nn(-c2ccccc2)c(C)c1CCc1nn2c(-c3ccncc3)nnc2s1,-3,.,108,.
Cc1ccc(C)c(N2CCN(C(=O)CCCN3C(=O)c4ccccc4Sc4ncccc43)CC2)c1,-1,.,100,.

New compounds follow
Structure,HCMV NEC inh,Sa growth inh,GIV-Gai inh,Sa growth inh second temp
O=c1c2ccccc2n2c(SCc3ccc(F)cc3)nnc2n1Cc1ccc(F)cc1,8,.,99,.
CC(C)c1ccc(-c2cc3n(n2)CC(C)(C(=O)NC2CCCCC2)N(CCN(C)C)C3=O)cc1 (configuration not stated),0,.,100,.
c1ccc(-c2nnnn2CCOCCn2nnnc2-c2ccccc2)cc1,6,102,.,103
Cc1nc(Sc2nnc3sc4ccccc4n23)c2c3c(sc2n1)CCC3,-14,100,.,98
Cc1ccc(-n2nc(C(=O)O)c(C)c(C#N)c2=O)cc1C,.,70,112,64
O=C(O)CCc1c(C(=O)O)[nH]c2ccccc12,-18,94,99,83
Cc1ccc(CSc2nc(C(=O)O)ccc2C#N)cc1,54*,51,.,24
CN(C(=O)c1cc2c(s1)-c1ccccc1S(=O)(=O)C2)c1ccccc1,.,114,108,86
c1ccc2c(c1)CSC(=NCc1ccncc1)N2,-13,.,102,.
COc1ccc(OC)c(CCNC(=O)CCc2nc3ncccc3c(=O)n2Cc2ccccc2)c1,.,96,101,90
CC1CCC(C(C)C)C(OCC(O)C[N+]2(C)CCCCC2)C1 (configuration not stated),.,86,101,85
CN(C)S(=O)(=O)c1cccc(C(=O)N2C(=O)c3cccc(N)c3C2=O)c1,-56,88,.,91
COc1cc(-c2nc3ccccn3c2/N=C/c2sccc2C)ccc1O,.,80,104,94
COCC(C)N=C1NN=C(c2c[nH]c3ccccc23)CS1 (configuration not stated),-52,88,.,94
COc1ccc(N2CCN(CC(=O)N(C)C)CC2)cc1,1,104,102,86

Part of the list above, with two lines to a compound.
Each structure is followed by: HCMV NEC inh, Sa growth inh, GIV-Gai inh, Sa growth inh second temp
COc1ccc(N2CCN(CC(=O)N(C)C)CC2)cc1
    1, 104, 102, 86
CSC1=NCCN1S(=O)(=O)c1ccccc1
    -16, 95, 100, 88
O=C(Cn1c(=O)c2ccccc2n(CC(=O)Nc2ccc(Br)cc2)c1=O)NCc1ccco1
    -2, 97, 103, 92
O=C(CSC1CCCC1)Nc1ccccc1Br
    -20, 109, ., 93
CC1CCN(S(=O)(=O)c2ccc3c(c2)N(CC(=O)N2CCN(c4ccccc4)CC2)C(=O)CO3)CC1
    1, 78, 101, 94
Cc1sc2ncn(CC(=O)N3CCN(c4ccccc4F)CC3)c(=O)c2c1S(=O)(=O)N1CCN(c2ncccn2)CC1
    -29, 107, 111, 93

Additional entries.
Structure,HCMV NEC inh,Sa growth inh,GIV-Gai inh,Sa growth inh second temp
Cc1ccc2oc3c(c(=O)c2c1)C(c1ccc(OCC(N)=O)cc1)N(Cc1ccc2c(c1)OCO2)C3=O (configuration not stated),4,88,106,93
CCn1c(=O)ccc2cc(OC)ccc21,-119,76,102,103
O=c1oc2ccccc2n1CCc1ccccc1,-5,117,.,87
Cc1ccc(CN(Cc2ccco2)C(=O)COc2ccc(C)c(C)c2)cc1,11,86,105,66
